Screening data from PubChem.
TRPML1 blocker: qHTS for Inhibitors of the Human Mucolipin Transient Receptor Potential 1 (TRPML1) | activity change, negative = inhibition, % (concentration not given with the values) | Mucolipin-1 (Homo sapiens), Q9GZU1 | 390,000 compounds, 0.02% hits | TRPML1-inducible cells, Ca2+ dye fluorescence, FDSS; active compounds read low; inhibition of EC80 agonist-evoked calcium signal; in the data active means activity change below about -50%; inconclusive means about -30% to -50%; inactive means above about -30%;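 note: stimulus is agonist 54-4 at its EC80 concentration; % is set by controls: 0 for no effect and ±100 for the full control effect; the text of the record puts the active cut at -80%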
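Calcium fluorescence in TRPML1-DL cells induced overnight with Tet: a 110 s read after compound pin addition, then a 110 s antagonist read after challenge with 54-4 at 4 uM final (EC80).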
TRPML1 agonist: qHTS for Agonists of the Human Mucolipin Transient Receptor Potential 1 (TRPML1). 410,000 compounds, 0.12% hits. TRPML1-expressing cells, Ca2+ dye fluorescence, FDSS; host cell line not named in the record; reference of the full effect not given here. activation, % (concentration not given with the values); in the data active = activation above about 50%; inconclusive = about 30% to 50%; inactive = below about 30%; note: 0% is about no effect; the text of the record puts the active cut at 80%
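Calcium fluorescence on an FDSS kinetic reader gave the read-out. Tet-induced TRPML1-DL cells were plated overnight, dye-loaded (Ca8 with quencher, 45-90 min, room temperature, dark), then read 110 s after compound addition, and again 110 s after 4uM final 54-4 (EC80).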
Menin-MLL FL inh: qHTS Assay for Inhibitors Targeting the Menin-MLL Interaction in MLL Related Leukemias: Competition With Fluorescein Labeled MLL-derived Peptide. Fluorescence polarization, fluorescein-MLL peptide displacement from menin. FP activity change, % at 61.4 µM. 290,000 tested, under 10 active; inconclusive = falling polarisation curve, or a change in total fluorescence; inactive = total fluorescence flat and polarisation flat or rising; no compound was filed as active; the % refers to the polarisation; negative = inhibition;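 note: % of control where 0% means no effect; inhibitors lower the polarisation; unlabelled MLL peptide was the positive control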
PINK1 expr mod: A Quantitative High throughput Screen to Identify Chemical Modulators of PINK1 Expression | PINK1 immunofluorescence, high-content cytometry, 24 h | Potency, µM (series often up to 76.6 µM), without a hit: at the top dose activation (PINK1 increase), usual class: activators | 410,000 compounds, 0.2% hits | AID 624263, 2012; active = well fitted activation curve with a large enough effect; inconclusive = small, poorly fitted or top-dose-only effect; inactive = flat fitted curve, though single readings scatter; cell line not stated here;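 note: potency is the fitted concentration of half-maximal effect; % of control where 0% means no effect; nearly all actives have a fitted effect of over 65% in size; a mitochondrial uncoupler was the plate control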
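PINK1 protein, normally rapidly degraded, was detected by immunofluorescence after 24 hour compound treatment of a stable cell line. Titration data (5 concentrations) came from laser-scanning cytometry, with CCCP-treated wells as controls.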
ClpP mod: qHTS Assay for Activators of ClpP; ATP-dependent Clp protease proteolytic subunit (Bacillus subtilis (strain 168)), P80244; purified B. subtilis ClpP, FRET peptide cleavage, 20 min; 340,000 compounds, 1.9% hits; AID 651965, 2013; Potency, µM (highest dose often 57.5 µM), without a hit: top-dose activity change, negative = active; active = well fitted falling curve with a large enough effect; inconclusive = small, poorly fitted or top-dose-only effect; inactive = no such curve, though single readings can be large or run the other way; note: potency is the fitted concentration of half-maximal effect; the source files actives as falling curves though it sought activators and does not explain the sign; nearly all actives have a fitted effect of over 65% in size; many hits overshoot -100%
Target sequence (P80244 whole entry, looked up): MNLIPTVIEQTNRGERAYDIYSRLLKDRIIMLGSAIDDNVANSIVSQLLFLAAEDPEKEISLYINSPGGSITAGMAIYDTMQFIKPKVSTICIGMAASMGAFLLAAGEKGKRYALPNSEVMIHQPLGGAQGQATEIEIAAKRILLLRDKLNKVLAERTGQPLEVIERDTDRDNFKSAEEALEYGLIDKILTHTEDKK
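ClpP 10 microg/mL final, pH 8 Tris/KCl buffer with BSA, glycerol, Tween-20; compound pinned in; FRET-FV substrate; RT 20 min; Ex320/Em430; ΔFRET vs ADEP 5.8 microM, DMSO, no enzyme.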
TRPV1 PAM: HTS Assay for Compounds that Act as Potentiators of the Vanilloid Receptor 1 | Transient receptor potential cation channel subfamily V member 1 (Homo sapiens), Q8NER1 | TRPV1-expressing cells, Fluo-8 calcium influx, capsaicin EC20 potentiation; host cell line not named in the record; control for the full effect not named in the record | potentiation, % at 8.33 µM | 320,000 compounds, 0.02% hits | AID 540277, 2011; active means potentiation above 80%; inconclusive means 30% to 80%; inactive means below 30%; note: 0% is about no effect
Target sequence (Q8NER1 whole entry, looked up): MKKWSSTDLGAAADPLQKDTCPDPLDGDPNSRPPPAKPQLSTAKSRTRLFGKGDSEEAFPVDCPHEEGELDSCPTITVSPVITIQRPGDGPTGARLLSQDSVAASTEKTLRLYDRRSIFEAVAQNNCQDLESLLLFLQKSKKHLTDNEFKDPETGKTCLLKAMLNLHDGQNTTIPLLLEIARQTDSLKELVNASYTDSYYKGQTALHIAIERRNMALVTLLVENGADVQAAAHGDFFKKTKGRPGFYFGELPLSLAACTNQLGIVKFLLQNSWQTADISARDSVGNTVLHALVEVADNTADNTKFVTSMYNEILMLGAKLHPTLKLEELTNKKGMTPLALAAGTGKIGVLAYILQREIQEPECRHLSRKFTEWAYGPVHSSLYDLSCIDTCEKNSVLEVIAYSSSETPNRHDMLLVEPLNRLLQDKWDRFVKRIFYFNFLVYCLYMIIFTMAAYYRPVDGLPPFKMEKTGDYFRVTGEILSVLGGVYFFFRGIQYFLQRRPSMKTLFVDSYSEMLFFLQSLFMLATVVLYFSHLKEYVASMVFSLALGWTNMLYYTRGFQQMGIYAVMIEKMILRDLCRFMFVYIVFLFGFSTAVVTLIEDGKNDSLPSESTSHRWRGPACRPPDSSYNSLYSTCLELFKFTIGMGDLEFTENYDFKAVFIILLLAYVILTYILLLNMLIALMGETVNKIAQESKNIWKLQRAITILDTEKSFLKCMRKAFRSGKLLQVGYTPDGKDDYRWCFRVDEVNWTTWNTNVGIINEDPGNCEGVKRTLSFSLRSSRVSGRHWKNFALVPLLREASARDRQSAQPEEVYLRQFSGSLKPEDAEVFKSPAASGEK
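Cells expressing TRPV1 were dye-loaded with Fluo-8 and read kinetically: 10 s baseline, 3 min after compound (agonist portion), then 2 min after EC20 capsaicin (allosteric enhancer portion). Calcium-bound dye fluorescence at 480/520 nm.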
Sfp inh: qHTS Assay for Inhibitors of Bacillus subtilis Sfp phosphopantetheinyl transferase (PPTase). Potency, µM, without a hit: max response, negative = inhibition, most hits filed as inhibitors. 4'-phosphopantetheinyl transferase ffp (Bacillus subtilis), Q9F4F7. 310,000 compounds, 3.5% hits. Biochemical Sfp PPTase activity, qHTS; active = well fitted inhibition curve with a large enough effect; inconclusive = small, poorly fitted or top-dose-only effect, or another doubt; inactive = no such curve, though single readings can be large or run the other way;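 note: the enzyme is Sfp with the accession as filed and its product quenches rhodamine fluorescence; potency is the fitted concentration of half-maximal effect; 0% = enzyme reaction without inhibitor and -100% = no enzyme wells; top concentration of the series not given in the record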
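Compounds were incubated with enzyme (final 15 nM) for 15 min at room temperature before substrate addition started the reaction. Fluorescence at 525 nm excitation, 598 nm emission was recorded immediately and after 30 minutes.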
The depositor's hits bear a star; ? = inconclusive; . = not tested or not shown; & = joins results of further samples; [ ] = dose if it differs, or a comment.

Order of results – TRPML1 blocker	TRPML1 agonist	Menin-MLL FL inh	PINK1 expr mod	ClpP mod	TRPV1 PAM	Sfp inh
> FC(F)(F)c1ccccc1NC1=NCCC1
→ -8	1.0	-3.4	-0.4%	.	1	16%
> Cc1noc(/C=C/c2ccccc2F)c1S(=O)(=O)N1CCC(C(=O)N2CCN(C)CC2)CC1
→ 1	0.0	3.7	-0.2%	-4.1%	-7	-1%
> Cc1cc(C(=O)CSc2nnc(N)s2)c(C)n1Cc1ccco1
→ -8	0.2	4.6	-0.6%	.	-17	10%
> CC(NC(=O)CN1C(=O)NC(Cc2ccccc2)(Cc2ccccc2)C1=O)C12CC3CC(CC(C3)C1)C2 (centres undefined)
→ 3	-0.6	4.0	?	-0.7%	2	8%
> Cc1nc(NC(=O)C2CC2)sc1C(=O)N(C)C
→ -16	-0.1	5.6	.	-0.5%	-22	14%
> COc1cccc(C=Nc2cc(C)on2)c1O
→ -12	0.0	-1.7	-1.2%	-2.5%	2	-15%
> O=C(Nc1nnc(SCc2ccc(F)cc2)s1)c1cnccn1
→ -1	-0.5	2.0	1.0%	.	-27	1%
> O=C(NCCCN1CCN(c2ccc(F)cc2)CC1)c1cccc(N2CCCC2=O)c1
→ 7	-0.2	3.3	0.0%	-2.9%	-1	22%
> CC1(NC(=O)Nc2ccccc2)CCS(=O)(=O)C1 (centres undefined)
→ 9	0.4	1.3	0.0%	-12%	-4	14%
> C=C1c2ccccc2O[C@H](C(=O)OCC)[C@H]1OC
→ -4	-0.9	.	0.5%	-0.5%	.	.
> CCc1ccc(-n2nc(CO)c(C(=O)NCc3ccccc3OC)n2)cc1
→ 31	1.7	.	-1.4%	-3.7%	.	.
> CN1CCN(C2CN(Cc3ccc([N+](=O)[O-])cc3)S(=O)(=O)C2)CC1 (centres undefined)
→ -4	-0.5	.	-1.5%	-0.4%	.	.
> CC(=O)N1CCN(C(=O)CCc2cc(C(C)(C)C)c(O)c(C(C)(C)C)c2)CC1
→ 4	-0.1	.	1.3%	-2.9%	2	1%
> Cc1ccc(-n2c(SCC3CNC(=O)O3)nnc2-c2ccccc2)cc1C (centres undefined)
→ .	.	2.5	.	.	-4	8%
> COC(=O)c1[nH]nc(-c2ccccc2)c1-c1ccccc1
→ 15	2.4	.	6.5%	.	.	.
> CCOC(=O)c1ccc(NC(=O)N(CC)CC)cc1
→ 0	-0.6	2.0	-0.3%	-3.5%	.	11%
> O=C(O)CSCC(=O)Nc1cccc(C(F)(F)F)c1
→ -2	0.1	1.9	6.2%[38.3 µM]	0.4%	14	18%
> O=C1NC2(CCc3ccccc3C2)C(=O)N1CCOc1cccc(Cl)c1 (centres undefined)
→ 6	-0.4	2.5	2.4%	1.2%	-32	-5%
> O=C1CC(SCc2nc3ccccc3[nH]2)C(=O)N1c1ccc(F)c(Cl)c1 (centres undefined)
→ 11	-0.1	5.2	.	7.4%	-3	-17%
> CC1CC1C(=O)OCC(=O)Nc1ccc2[nH]c(=O)[nH]c2c1 (centres undefined)
→ -2	0.5	-1.4	-0.8%	-0.9%	3	22%
> CC(C)C1Cc2[nH]c(=S)[nH]c(=O)c2C(c2ccc(F)cc2)O1 (centres undefined)
→ 41	0.2	.	0.4%	0.6%	.	.
> CC(C)CNc1nc(Oc2ccc(OCC(N)=O)nn2)nc(N2CCOCC2)n1
→ 19	1.4	.	2.1%	0.0%	.	.
> CCOC(=O)C1=CN(Cc2cccc(F)c2)S(=O)(=O)NC1c1ccc2ccccc2c1 (centres undefined)
→ -3	0.4	.	1.7%	-1.9%	.	.
> NC(=O)c1ccsc1NC(=O)c1ccc2c(c1)CCCC2
→ -6	-0.7	-0.1	6.0%	-15%	-3	-6%
> Cc1ccc(S(=O)(=O)NC(CC(=O)N2CCOCC2)c2ccco2)cc1 (centres undefined)
→ 5	-0.6	-2.9	-0.6%	?	-7	7%
> Cc1ccc(S(=O)(=O)N2CCN(CC(=O)N/N=C/c3cc([N+](=O)[O-])ccc3Cl)CC2)cc1
→ 5	1.5	6.9	-0.5%	-0.5%	2	-10%
> CCn1c(C)c(P(c2ccccc2)c2ccccc2)[n+]2ccccc12
→ 4	0.2	3.4	3.8%	.	6	29%
> COc1ccc(NC(=O)CN(C)C(=O)c2cc(-c3ccc(C)o3)nc3ccccc23)cc1
→ 6	-0.5	.	-1.9%	25µM*	7	.
> CCNC(=O)COc1ccc(-c2ccccc2)cc1
→ -5	0.2	1.9	5.1%	-14%	-1	-4%
> Cc1ccc2oc(=O)c3cc(C(=O)NCCCN4CCCCCC4)sc3c2c1
→ -11	-0.7	5.9	7.5%	4.2%	15	?

Just Sfp inh and TRPML1 blocker (2 entries from above):
SMILES,Sfp inh,TRPML1 blocker
CN1CCN(C2CN(Cc3ccc([N+](=O)[O-])cc3)S(=O)(=O)C2)CC1 (centres undefined),.,-4
CC(=O)N1CCN(C(=O)CCc2cc(C(C)(C)C)c(O)c(C(C)(C)C)c2)CC1,1%,4

(continued)
Order of results – TRPML1 blocker	TRPML1 agonist	Menin-MLL FL inh	PINK1 expr mod	ClpP mod	TRPV1 PAM	Sfp inh
> Cc1cc(NC(=O)CSc2nnc(NC(=O)C3CC(=O)N(c4ccccc4C)C3)s2)no1 (centres undefined)
→ 0	-0.5	0.8	0.0%	0.4%	18	-11%
> CCCn1c(C(CO)Nc2nc(-c3cccc(Br)c3)cs2)nc2ccccc21 (centres undefined)
→ 26	0.5	4.7	0.1%	0.7%	-9	-9%
> Cc1cccc(C(=O)OC(C)C(=O)N2CCc3ccccc3C2)c1C (centres undefined)
→ -19	2.3	.	5.4%	0.3%	-12	.
> COc1ccc(-n2ncc3c(N4CCN(Cc5ccccc5)CC4)ncnc32)cc1
→ 5	-0.6	1.5	-0.5%	.	-4	-7%
> Cc1nc(COC(=O)c2ccc(S(=O)(=O)N3CCCC3)cc2)cs1
→ 5	-0.6	-0.1	-1.4%	0.7%	19	-12%
> O=C(Cn1cnc2ccccc2c1=O)Nc1nnc(C2CC2)s1
→ 24	-0.2	-2.7	-2.4%	-3.0%	-7	17%
> CCOC(=O)C1(CC2CC2)CCN(C(=O)c2cc(C)nc3ccc(CC)cc23)CC1
→ 69	0.9	-0.4	-1.0%	.	-7	0%
> Cc1c(Cc2ccccc2)c(=O)oc2cc(OCC(=O)NCc3ccccn3)ccc12
→ -7	-0.2	-9.0	0.5%	3.7%	0	-10%
> Cc1ccc(C23CC4CC(CC(C(=O)NCC(=O)O)(C4)C2)C3)cc1
→ 5	1.0	0.7	0.1%	1.2%	2	9%
> COCCn1c(SCC(=O)Nc2ccccc2OC)nc2ccccc21
→ 4	0.3	1.3	2.4%	.	3	21%
> O=C(OCC(=O)N1CCN(C(=O)c2ccco2)CC1)c1cc(S(=O)(=O)Nc2ccc(Cl)cc2)ccc1O
→ 2	-0.1	-4.4	3.7%	.	3	8%
> CCOC(=O)c1oc2ccc(S(=O)(=O)n3nc(-c4ccc(C)cc4)cc3N)cc2c1C
→ -11&-2	-0.7&-0.7	1.4	0.7%&0.8%	-0.2%&0.1%	-6	19%
> CC(C)OC(=O)CSc1nnc(Cc2ccccc2)n1Cc1ccco1
→ -8	0.1	5.5	?	-0.8%	?	22µM*
> COc1ccccc1C(O)P(=O)(OCC(C)C)c1ccc(N(C)C)cc1 (centres undefined)
→ 4	0.1	1.8	-2.8%	-5.9%	2	1%
> COc1ccc(NC(=O)C2CCCN2S(=O)(=O)c2ccc3c(c2)CCC(=O)N3)cc1Cl (centres undefined)
→ -11	0.5	3.6	1.0%	0.5%	?	13%
> Cc1ccc(S(=O)(=O)N2CCN(C(=O)CCNC(=O)c3ccccc3Cl)CC2)cc1
→ 6	-0.3	.	1.2%	-14%	8	.
> COc1ccc(CCNCc2ccc(OCc3ccccc3)cc2)cc1
→ 3	2.4	-16	?	.	3	-22%
> N#Cc1c(-c2ccccc2)c(-c2ccccc2)n[nH]c1=O
→ -10	2.2	0.4	-0.4%	-5.6%	21	16%
> CCOc1ccc(N(Cc2cc3cc(OC)ccc3[nH]c2=O)S(C)(=O)=O)cc1
→ 2	-0.5	6.7	3.8%[38.3 µM]	28µM*	6	-2%
> CNC(=O)CSc1nc(SC)ns1
→ -10	-0.2	-1.4	0.2%	.	-5	15%
> CCOc1ccc(NC(=O)N2CCC(NC(=O)C(Cc3cccc(F)c3)NC(C)=O)CC2)cc1 (centres undefined)
→ 1	-0.5	-5.8	-0.4%	.	8	9%
> COc1c(C)c2c(c(O)c1C/C=C(\C)CCC(=O)O)C(=O)OC2
→ .	.	-1.8	0.4%	4.2%	.	8%&36%&20%&15%&-6%&23%
> CC1CCC(C(=O)c2c(O)c3ccccc3oc2=O)CC1 (centres undefined)
→ -1	1.0	-2.3	4.8%	0.0%	25	13%
> CCOC(=O)C1(Cc2ccccc2)CCCN(C2CCCC2)C1 (centres undefined)
→ 17	0.9	3.1	1.2%	.	12	13%
> CC(C)C(NC(=O)c1ccccc1)C(=O)OCC(=O)N1CCN(c2ccccc2)CC1 (centres undefined)
→ 23	-0.1	.	-1.2%	-1.1%	4	.
> C=CCN(CC=C)Cc1cc(=O)oc2cc(OC)c(Cl)cc12
→ 63	1.9	.	2.9%	?	.	.
> COC(=O)c1ccccc1NC(=O)CSc1nnc(-c2cccnc2)n1C
→ 0	-1.0	1.8	-1.1%	-5.3%	-5	9%
> O=c1c2c(nc3cc(-c4ccccc4)[nH]n13)CCC2
→ 1	-0.9	-0.9	3.4%	11µM*	-2	-5%
> O=C(O)C/C=C(\NC(=O)OCc1ccccc1)C(=O)OCc1ccccc1
→ 17	2.5	-0.4	0.4%	0.4%	21	79µM*

Single records, from the list above. Screens in order: TRPML1 blocker | TRPML1 agonist | Menin-MLL FL inh | PINK1 expr mod | ClpP mod | TRPV1 PAM | Sfp inh
COCCn1c(SCC(=O)Nc2ccccc2OC)nc2ccccc21 across the screens: 4 | 0.3 | 1.3 | 2.4% | . | 3 | 21%
CCOC(=O)C1(Cc2ccccc2)CCCN(C2CCCC2)C1 (centres undefined) across the screens: 17 | 0.9 | 3.1 | 1.2% | . | 12 | 13%
